# High-throughput results (PubChem)
# H5N1 CPE – MDCK cell protection from H5N1 avian flu | inhibition, % at 50 µM | AID 740 | 96,000 compounds, 0.07% hits | cytopathic effect, luminescence, 72 h; stronger effect = higher value; no value below 0 was filed and about half of the inactive calls have no number; reference of the scale not given here; in the data active means inhibition above about 25%
# * marks the source's active call; other numbers are inactive results; i = inactive. Some of the compounds tested; the hit share may differ from the screen's.
molecule,H5N1 CPE
CCC(C)C(=O)N1CCc2cc(-c3csc(N)n3)ccc21 (stereo unspecified),0.3
CC1Cc2cc(/C(O)=C3/C(=O)C(=O)N(CCN4CCOCC4)C3c3cccc(O)c3)ccc2O1 (stereo unspecified),i
CC1=Nc2ccccc2/C1=C/c1sc(=O)n(CC(=O)N2CCCC2)c1O,0.7
Cc1ccc(NC(=O)c2cc(-c3ccco3)on2)cc1C,i
COc1ccc(/C(O)=C2\C(=O)C(=O)N(Cc3ccco3)C2c2cc(OC)ccc2OC)cc1 (stereo unspecified),i
O=C(Nc1cccc(Cl)c1Cl)c1ccncc1,i
Cc1ccc2c(c1)N=C(c1ccc(F)cc1)CO2,i
CCCCCCCCC/C(=N\O)c1ccccn1,6.5
O=C(NCCc1ccccc1F)C(=O)Nc1nccs1,2.5
COC(=O)C1=NN(c2ccccc2)C2(S1)S/C(=C\c1ccccc1)C(=O)N2c1ccccc1 (stereo unspecified),i
CC(Sc1ccc2ccccc2n1)C(=O)O (stereo unspecified),i
O=C1CC(c2cccc([N+](=O)[O-])c2)c2ccc3ccccc3c2N1 (stereo unspecified),1.2
COc1ccc(S(=O)(=O)N2CCC(N3CCN(c4ccccc4)CC3)CC2)cc1,i
O=C1CC(c2ccc(F)cc2)Cc2nc(NCC3CCCO3)ncc21 (stereo unspecified),2.6
CCn1cc(C2=NOC(C(=O)Nc3c(C)nn(Cc4ccc(F)cc4)c3C)C2)c(C)n1 (stereo unspecified),0.7
CCCNc1nc2c(c(=O)[nH]c(=O)n2C)n1Cc1ccc(F)cc1,i
Cc1cc(C(=O)CC#N)c(C)n1CC(F)(F)F,0.4
O=C(Nc1ccc(Cl)cc1)N1CCC(c2nc(-c3cccs3)no2)CC1,0.4
Clc1ccccc1-c1nn2c(Cn3cnc4ccccc43)nnc2s1,1.2
CCOC(=O)C1CCCN(C2CC(=O)N(c3cccc(C(F)(F)F)c3)C2=O)C1 (stereo unspecified),0.7
CCSc1ccccc1C(=O)Nc1cc(C)on1,1.3
Cc1ccc(-c2nc(NC(=O)CSc3nnc(C)s3)ns2)cc1,1.1
O=C(CC12CC3CC(CC(C3)C1)C2)NCO,0.5
COc1ccc(-c2ccc(SCC(=O)NCc3ccco3)nn2)cc1,3.0
CCc1cccc(NC2c3ccccc3C(=O)N2c2ccc(C)cn2)c1 (stereo unspecified),1.0
COC(=O)c1ccccc1S(=O)(=O)N(CCCO)Cc1cc2c(C)ccc(C)c2[nH]c1=O,0.4
O=C(c1ccc(F)cc1)C1CCN(C(=O)N2CCOCC2)CC1,i
Cc1nnc(NC(=O)c2ccc3c(c2)C(=O)N(CC2CCCO2)C3=O)s1 (stereo unspecified),1.8
O=C(NC(=S)Nc1ccc(N2CCCCC2)cc1)c1cccs1,0.2
O=C(c1csc2c1CCCC2)N1CCN(c2ccccc2)CC1,2.1
C#CCn1c(=NC(=O)c2ccc(Cl)s2)sc2cccc(OC)c21,0.1
CC(NC(=O)C1CCCN(S(=O)(=O)c2cnc[nH]2)C1)c1ccccc1 (stereo unspecified),0.8
COCCn1nnnc1C(c1cccs1)N1CCN(c2nc3ccccc3s2)CC1 (stereo unspecified),6.2
COc1cc(OC)c(C(=O)Nc2ccc(S(=O)(=O)Nc3ncccn3)cc2)cc1OC,0.6
O=C(c1ccccc1)N(c1ccccc1)C1C=CS(=O)(=O)C1 (stereo unspecified),0.6
COC(=O)c1ccccc1NC(=O)Nc1cc(C)cc(C)n1,0.1
COc1cc(S(=O)(=O)N2CCCCC2)ccc1NC=O,i
Clc1cccc(Nc2c3c(nc4ncnn24)CCC3)c1,0.6
O=C(NC1CCCCC1)C1CCN(c2nnnn2-c2ccccc2)CC1,i
COC(=O)c1cn(NC(=O)c2ccncc2)c(=O)c2ccccc12,i
C=CCn1c(=O)/c(=C/c2ccc(F)cc2)s/c1=C(\C#N)c1nnc2n1CCCCC2,3.8
CCN(CCCNC(=O)CCn1c(=O)[nH]c2ccccc2c1=O)c1ccccc1,i
C=CCNC(=O)Nc1ccc(OCC)cc1,0.2
O=c1c2ccc(Cl)cc2[nH]c(=S)n1Cc1cccnc1,0.3
CC(C(=O)N1CCN(C=O)CC1)N1C(=O)c2ccccc2C1=O (stereo unspecified),i
CCSc1cc(C2C(C#N)=C(N)OC(C)=C2C(=O)OC)c(C)o1 (stereo unspecified),i
O=C(NC1CCN(Cc2ccccc2)CC1)C1CCCN(c2nnc(-n3cccc3)s2)C1 (stereo unspecified),i
CCn1c(NCc2cc(OC)ccc2OC)nc2ccccc21,i

# Not a retest: an excerpt of the list.
molecule,H5N1 CPE
O=C(NC1CCCCC1)C1CCN(c2nnnn2-c2ccccc2)CC1,i
COC(=O)c1cn(NC(=O)c2ccncc2)c(=O)c2ccccc12,i

# Remaining list, next part:
molecule,H5N1 CPE
Cn1c(=O)cc(OCC(=O)Nc2ccccn2)c2ccccc21,0.1
CCN(CC)c1ccc(N2C(=O)/C(=C\c3cccs3)SC2=S)cc1,i
Cc1ccc(-c2noc(CCCN3C(=O)c4ccccc4C3=O)n2)cc1,i
Cc1cccc(OCC(O)CN2C(C)(C)CC(O)CC2(C)C)c1 (stereo unspecified),i
CCOC(=O)c1ccc2c(c1)nc(SCC(=O)N1CCCCC1)n2CC,1.9
O=C(c1cc(-c2ccc(Cl)cc2)n(-c2ccc(Cl)cc2Cl)n1)N1CCOCC1,27.9*
Cc1ccc(/C=N/NC(=S)NC2CCS(=O)(=O)C2)cc1 (stereo unspecified),i
CCC(C)NC(=O)CN(c1ccc2c(c1)OCO2)S(=O)(=O)c1c(C)n[nH]c1C (stereo unspecified),2.3
COc1ccccc1-n1cnnc1SCC(=O)Nc1nc(C)c(Cl)cc1Cl,0.9
COc1ccc(OC)c2sc(NC(=O)c3ccc(S(=O)(=O)N(C)C)cc3)nc12,i
Cc1ccc(S(=O)(=O)Oc2ccc(C)cc2/C=N/N=C2\NC(=O)C(C)S2)cc1 (stereo unspecified),i
CCCc1nc2oc3c(NCc4ccccn4)ncnc3c2c2c1COC(C)(C)C2,0.4
COc1cc(CO)cc(Br)c1OCC(=O)O,1.2
O=C(CSc1nc2c(cnn2-c2ccc(F)cc2)c(=O)[nH]1)N1CCCc2ccccc21,i
COC(=O)C1=C(C)N(c2ccc(OC)c(OC)c2)C(=O)C1,i
CCc1sc2nc(SCC(=O)Nc3cc(C)on3)n(-c3cccc(OC)c3)c(=O)c2c1C,i
CC1(C)CN2C(c3ccc(Cl)cc3)N2C1 (stereo unspecified),i
N#C/C(=N\Nc1cccc(Cl)c1)C(=O)c1ccccc1,1.4
CCOc1ccccc1NC(=O)C(=O)/C=C(\O)c1cc(OC)ccc1OC,2.8
Cc1c(C(=O)N(C)C)sc(NC(=O)c2cc([N+](=O)[O-])cc([N+](=O)[O-])c2)c1C#N,i
OC(CNCc1ccc(F)cc1)(c1ccccc1)c1ccc(F)cc1 (stereo unspecified),i
CC(=O)Nc1ccccc1-c1ccc(C)o1,i
Cc1ccccc1-n1c(SCC(=O)NCc2cccs2)nnc1-c1ccncc1,4.0
C/C(Cl)=C/Cn1c(SCc2ccc(Cl)cc2)nc2c1c(=O)[nH]c(=O)n2C,0.3

# Shown as labelled records: entries from further up
> COC(=O)C1=C(C)N(c2ccc(OC)c(OC)c2)C(=O)C1
  H5N1 CPE = i

> CCc1sc2nc(SCC(=O)Nc3cc(C)on3)n(-c3cccc(OC)c3)c(=O)c2c1C
  H5N1 CPE = i

# Later entries
molecule,H5N1 CPE
Cc1cc(=O)oc2cc(NC(=O)CCCC(=O)O)ccc12,i
CCn1c(C)nc2cc(C(=O)n3cc(C(=O)c4ccccc4O)cn3)ccc21,0.7
Cc1cc2oc(=O)cc(CN3CCN(S(=O)(=O)c4ccc5c(c4)OCCO5)CC3)c2cc1C,2.4
CC(C)(CSc1nncn1/N=C/c1ccco1)NS(=O)(=O)c1ccc(Cl)cc1,5.2
CCOC(=O)N1CCN(CC(=O)Nc2cc(C)nn2-c2nc3ccccc3s2)CC1,1.3
C=CCn1c(SCC(=O)Nc2ccc(C(=O)OC(C)C)cc2)nnc1-c1cccs1,0.6
Cc1cc(NC(=O)c2ccc(N3C(=O)CCC3=O)cc2)no1,i
COc1ccc(CCNC(=S)Nc2ccccc2C)cc1,1.1
OCCN1CCN(CCSc2ccccc2)CC1,0.6
Cc1ccc(S(=O)(=O)NCCSc2nnnn2-c2ccc(C(N)=O)cc2)cc1,2.1
CCOC(=O)c1[nH]c2ccccc2c1NC(=O)c1nonc1C,0.3
CCOC(=O)C1CCCN(c2c(NCCc3ccc(S(N)(=O)=O)cc3)c(=O)c2=O)C1 (stereo unspecified),0.8
CCOC(=O)CSc1nc2ccccc2c(=O)n1CCN1CCOCC1,1.1
O=C(O)CONC(=O)c1cc(OCC(F)(F)F)ccc1OCC(F)(F)F,1.3
CCN(CC)c1ccc(NC(=O)CSc2nc(C)cc(=O)[nH]2)cc1,1.4
Cc1cccc(-c2noc(Cc3ccc(Cl)cc3)n2)c1,i
CCOC(=O)c1c(NC(=O)CSc2nnc(CN3CCOCC3)n2C)sc2c1CCCC2,0.3
CSc1nc(NCc2ccco2)c2sc3nc(C(C)C)c4c(c3c2n1)CC(C)(C)OC4,1.1
O=C(Nc1ccc(Br)cc1)c1cnccn1,i
O=S(=O)(c1ccc(Br)cc1)c1nc(-c2ccccc2)oc1NCc1cccnc1,i
COC(=O)C1(O)CC(CC(C)C)=NN1C(=O)c1ccccc1 (stereo unspecified),0.4
O=C(NCC1CCCO1)NC1(C(F)(F)F)Oc2ccccc2O1 (stereo unspecified),i
CN1C(=O)N(C)C2(c3ccccc3)Nn3c(s/c(=C/c4ccccc4F)c3=O)=NC12c1ccccc1 (stereo unspecified),i
O=C(c1ncn[nH]1)N1CCN(c2nc(-c3ccccc3)cs2)CC1,0.7

# Some of the entries so far, field by field:
> COC(=O)C1(O)CC(CC(C)C)=NN1C(=O)c1ccccc1 (stereo unspecified)
  H5N1 CPE: 0.4

> CCOC(=O)c1c(NC(=O)CSc2nnc(CN3CCOCC3)n2C)sc2c1CCCC2
  H5N1 CPE: 0.3

> O=C(O)CONC(=O)c1cc(OCC(F)(F)F)ccc1OCC(F)(F)F
  H5N1 CPE: 1.3

# The list goes on:
molecule,H5N1 CPE
O=C(c1ccc2nc(-c3ccco3)c(-c3ccco3)nc2c1)N1CCC2(CC1)OCCO2,3.4
Cc1ccc(CNC(=O)CN2CCCC(C)C2)cc1 (stereo unspecified),i
O=C(Nc1ccccc1)c1[nH]ncc1[N+](=O)[O-],i
O=C(NCc1ccc2c(c1)OCO2)C12CC3CC(CC(C3)C1)C2,1.3
C=CCNC(=O)NC(=O)COC(=O)c1cccnc1SC,i
O=S(=O)(C=C(c1ccccc1)c1ccccc1)c1ccccc1,1.6
CCOC(=O)C(C)Sc1cc(CS(=O)(=O)c2ccccc2)nc(-c2ccccc2)n1 (stereo unspecified),1.4
Cc1ccc(C)c(-c2csc(N)c2C(=O)OC(C)C)c1,0.6
Cc1cc(Oc2ccccc2)nc(N2CCOCC2)n1,i
Cc1cc(=O)oc(C)c1C(=O)NCC(C)C,0.5
CCN(CC)C(=O)Oc1ccc(Cl)c2ccccc12,4.3
O=C(O)c1ccc2cccc(Cl)c2c1O,0.4
CCCCn1c(SCC(=O)Nc2nnc(C(C)C)s2)nc2c1c(=O)n(C)c(=O)n2C,i
CCOC(=O)c1cccc(NC(=O)COc2ccc([N+](=O)[O-])cc2)c1,0.8
c1ccc(-c2nn3c(Cn4nnc5ccccc54)nnc3s2)cc1,2.3
N#Cc1c(NC(=O)CSc2ncnc3c2cnn3-c2ccccc2Cl)sc2c1CCCC2,0.1
O=C(Nc1nc2ccc(Cl)cc2s1)C1CCCO1 (stereo unspecified),0.7
Cc1cc(OC(=O)c2ccc(S(=O)(=O)N(C)C)cc2)cc(=O)o1,0.2
Cn1nnnc1SCC(=O)Nc1cc(C(C)(C)C)nn1-c1ccccc1,i
COc1ccc(/C=N/NC(=O)c2cccc([N+](=O)[O-])c2)cc1OS(=O)(=O)c1ccccc1,1.1
Cc1c(C#N)c2ccccc2n1CC(=O)N1CCCc2ccccc21,1.7
O=C1c2ccccc2C(=O)N1CC1c2ccccc2CCN1C(=O)C1CCCCC1 (stereo unspecified),i
COc1ccc(-c2n[nH]c(=S)o2)c(OC)c1,i
Cc1ccc(C)n1Cc1ccc(C(=O)O)cc1,2.1
Cn1c(=NC(=O)c2ccco2)sc2cccc(F)c21,0.6
Cc1cc(O)c(C(C[N+](=O)[O-])c2ccc(Cl)cc2)c(=O)o1 (stereo unspecified),0.3
CN(C)S(=O)(=O)c1ccc(NC(=O)N2CCN(c3ccccc3)CC2)cc1,i
Cc1cccc(CSc2nc3sc(C)c(C)c3c(=O)n2Cc2ccco2)c1,i
O=C(c1ccc2c(c1)OCO2)N1CCCc2ccccc21,0.3
CCOC(=O)CSc1nnc(Cn2c(=O)sc3ccccc32)n1C,0.5
COc1ccc(OC)c(NC(=O)CSc2nnc(-c3ccco3)n2-c2ccccc2)c1,i
Cc1nc2sc(C(c3ccccc3)N3CC(C)OC(C)C3)c(O)n2n1 (stereo unspecified),i
O=C(c1cnn2c(C(F)(F)F)cc(-c3ccco3)nc12)N1CCc2ccccc2C1,3.6
O=C(CNC(=O)c1cnccn1)Nc1ccc(F)c(F)c1F,i
Cc1cc(=S)n(-c2ccccc2)n1C,i
Cc1ccc(-c2csc3ncn(/N=C/N(C)C)c(=O)c23)o1,0.2
COC(=O)c1nn(-c2cccc(C(F)(F)F)c2)c(=O)cc1Sc1ccccn1,10.3
